Calb biofilm kill: mixtures killing C. albicans biofilm; inhibition, % at 7.6 µM; 120,000 tested, 0.02% active; AID 1242; C. albicans biofilm persisters + clotrimazole, fluorescence viability; primary screen in compound mixtures of four per well;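 active means inhibition above 30.3% in the primary screen of four-compound pools, then above 30% when the compound was retested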;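 further: compounds exposed to preformed 24 h biofilms for 48 h; the number belongs to the whole pool; some results filed as inactive read as strong as hits; inactives centre near 12; 0% = biofilm with clotrimazole alone and 100% = kill control; retested singly at about 60 µM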
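System: C. albicans CAF4-2 wild-type biofilms; Medium: RPMI/MOPS medium, pH 7.0; Reagent: Clotrimazole, 50 µg/mL; Times: biofilm formation 24 h, compound exposure 48 h, 37 °C; Detection: 2-h Alamar Blue fluorescence, 535/590 nm excitation/emission; Evaluation: percent inhibition of biofilm viability.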
Active calls of the source: *. Only part of the results is shown (hit frequency here may not be typical).

SMILES	Calb biofilm kill
CC1=C(C)CC(C(=O)Nc2ccc(C(=O)N3CCOCC3)cc2)C(C(=O)O)C1 (stereo unspecified)	1
Cc1ccc(Cl)cc1N1CCN(C(=S)NCCc2ccccc2)CC1	-5
COc1ccccc1CNC(=O)c1ccc(OC(C)C)cc1	11
COc1ccc(CNC(=O)CSc2nnc(C)c(=O)[nH]2)cc1	10
Cc1ccc(C(=O)NC(=S)Nc2ccc(-c3ccc(CO)o3)cc2)cc1	2
Cc1cccc(NC(=O)CN(C)S(=O)(=O)c2cccc3cccnc23)c1C	21
Nc1nc(SCc2ccc([N+](=O)[O-])cc2)c2ncn(C3OC(CO)C(O)C3O)c2n1 (stereo unspecified)	11
CCOc1cc(/C=C(\C#N)C(N)=O)ccc1OS(=O)(=O)c1ccccc1	6
CCOC(=O)/C=C/C(=O)OCC(=O)Nc1cccc(Cl)c1Cl	8
C(=N\Nc1ccc2ccccc2n1)/c1ccc2c(c1)OCCO2	9
O=Cc1ccc(Oc2cccc(C(F)(F)F)c2)nc1	14
O=C(O)COc1ccccc1C(Nc1cccnc1)c1cc(Cl)c2cccnc2c1O (stereo unspecified)	-3
Cc1cc(C(=O)NC2CCCCC2)c2cc(F)ccc2n1	19
CCOc1cccc(-c2cc(C(=O)NN)[nH]n2)c1	7
COc1cc(/C=C2/CC/C(=C/c3ccc(O)c(OC)c3)C2=O)ccc1O	3
O=C(Cc1ccccc1)N/N=C/c1ccc[nH]1	11
CCOc1ccccc1NC(=O)C(=O)N/N=C/c1cc(Br)ccc1O	5
COc1cccc(CC(NC(C)=O)C(=O)NC2CCN(S(=O)(=O)c3ccc(F)cc3)CC2)c1OC (stereo unspecified)	23
O=C1NC(=Nc2ccc(Cl)cc2)SC1Cc1cc(Cl)ccc1Cl (stereo unspecified)	7
CCOC(=O)C(=O)Nc1cc([N+](=O)[O-])ccc1C	22
CN1CCN(C(=O)c2ccc(Cl)c(S(=O)(=O)N3CCCCCC3)c2)CC1	26
COc1cccc(C2c3c(C)nn(-c4ccc([N+](=O)[O-])cc4)c3N=C3C(=O)Nc4ccccc4N32)c1 (stereo unspecified)	7
CCCCC(O)(CCCC)C(=O)NN(C(=O)c1cccnc1Cl)c1ccccc1	4
O=C(COc1c(CO)cc(Br)cc1CO)NC1CCCc2ccccc21 (stereo unspecified)	6
COc1cc(/C=N/Nc2ccc(Cl)c(C(=O)O)c2)ccc1OC(=O)c1cccs1	13
CN(/N=C/c1ccc2c(c1)OCO2)c1ccccc1	14
CO/N=C/c1c(C(=O)OC)nn(-c2ccccc2)c1Cl	7
COc1cc(C(=O)NNC2=NC(C)(C)Cc3cc(C)c(C)cc32)cc(OC)c1OC	5
CCN1C(=O)/C(=C2\C=Cc3cc(C)ccc3N2CC)OC1=S	6
CC1=NN(C(=O)c2nn(C)cc2Br)C(O)(C(F)(F)F)C1 (stereo unspecified)	9
C=CCOc1c(Br)cc(/C=C(\C#N)C(N)=O)cc1OC	25
CCCCCCN(C(=O)CCCCCN1C(=O)NC(c2ccc(C(C)(C)C)cc2)C(C(=O)OCc2ccccc2)=C1C)C(C(=O)NCCCC)c1ccc(OCC(=O)OC)c(C(=O)OC)c1 (stereo unspecified)	7
CCOc1cccc(C(=O)NC(=S)Nc2cccc(C)c2)c1	12
O=C(NCc1csc(-c2cccs2)n1)Nc1ccc(F)cc1F	9
CCOC(=O)N1CCN(C(=S)Nc2ccc(C)cc2)CC1	3
COCCCNCCOCCOc1ccccc1-c1ccccc1	15
Cc1cc(CNC(=O)CC2C(=O)NCCN2CC(c2ccccc2)c2ccccc2)on1 (stereo unspecified)	11
Cc1cc(NC(=O)C(=O)NCCN2CCN(C(=O)c3cccs3)CC2)ccc1Br	7
CCNC(=S)SCCOc1ccccc1C	11
COc1cc(CCC(=O)OCC(=O)Nc2c(C)cccc2C(C)C)cc(OC)c1OC	15
O=C(N/N=C\c1ccc(Br)o1)C1COc2ccccc2O1 (stereo unspecified)	21
CCC(=O)Nc1cccc(C(=O)OC)c1	17
CCOc1ccc(CCNC(=O)Cn2cccc2C(=O)c2ccccc2C)cc1OCC	15
CC1(C)C2CCC1(CS(=O)(=O)Nc1ccc(S(=O)(=O)N3CCCC3)cc1)C(=O)C2 (stereo unspecified)	-3
CC1CN(c2ccc(NC(=O)c3ccco3)cc2C(=O)O)CC(C)O1 (stereo unspecified)	14
Cc1ccc(NC(=O)COC(=O)c2cc(Cl)cc(Cl)c2)c(Br)c1	15
Nc1nc(Nc2ccccc2F)nc(NCc2ccccc2)c1[N+](=O)[O-]	16
CC(CNS(=O)(=O)c1ccccc1)Sc1nncn1C (stereo unspecified)	15
Cn1c(O)c(N=NC(=O)CNC(=O)c2ccco2)c2ccccc21	17
O=C(NCCSCc1ccccc1)c1ccc(F)cc1	1
Cc1ccc(C(C(=O)NC2CCCC2)N(Cc2ccco2)C(=O)CCC(=O)Nc2cc(C)on2)cc1 (stereo unspecified)	8
Cc1cc(=O)n2[nH]c(-c3sccc3-n3c(C)ccc3C)cc2n1	6
CC(=O)c1c(C)[nH]c(C(=O)OCC(=O)Nc2ccc([N+](=O)[O-])cc2Cl)c1C	18
COc1ccc(NC(=O)c2ccccc2SC)c(OC)c1	10
CCOC(=O)Cc1cc(=O)n2[nH]cc(-c3cccc(Br)c3)c2n1	16
O=C(Nc1nc2ccc([N+](=O)[O-])cc2s1)c1c(F)cccc1F	20
CSc1nc(C)cc(Oc2ccc(OCC(N)=O)nn2)n1	0
COc1c(C)cc(C(=O)C2CCCN(C(=O)c3ccoc3)C2)cc1C (stereo unspecified)	10
Cc1ccc(NC(=O)CSc2nnc(CN3CCOCC3)n2-c2ccccc2)cc1	13
CCc1ccc(OCC(=O)NC(C)C)cc1	10
(further entries)
SMILES	Calb biofilm kill
Cc1cc(C)n(CC(C)NCc2cn[nH]c2-c2cccc3ccccc23)n1 (stereo unspecified)	15
Cc1ccc(C2CC2C(=O)NNC(=S)Nc2cccc(Cl)c2)cc1 (stereo unspecified)	19
CCO[C@H]1OC(C(=O)N2CCN(Cc3ccc4c(c3)OCO4)CC2)=C[C@@H](C2CCCCC2)[C@@H]1CCCO	20
COC(=O)c1cc(C(=O)NCCCN2CCOCC2)cc([N+](=O)[O-])c1	14
COc1cc(NC(=O)COC(=O)CCc2cc(OC)c(OC)c(OC)c2)cc(OC)c1	-6
COc1ccc(NC(=O)CC23CC4CC(CC(C4)C2)C3)cn1	4
CSc1nc2sccc2c(=O)[nH]1	4
Cc1ccc2nc(-c3ccc(SCC(=O)N4CCc5ccccc54)nc3)[nH]c2c1	5
S=C(NCc1ccccc1)N1CCn2cccc2C1c1ccncc1 (stereo unspecified)	7
CCC(=O)N(CCc1ccccc1)Cc1cc2cc(OC)ccc2[nH]c1=O	25
O=C(CSc1nc2ccccc2[nH]1)NC1CCCC1	10
CCN(C(=N)N=C(N)N)c1ccccc1	-1

Reprinted from the part before: 4 entries, then new ones.
SMILES	Calb biofilm kill
S=C(NCc1ccccc1)N1CCn2cccc2C1c1ccncc1 (stereo unspecified)	7
CCC(=O)N(CCc1ccccc1)Cc1cc2cc(OC)ccc2[nH]c1=O	25
O=C(CSc1nc2ccccc2[nH]1)NC1CCCC1	10
CCN(C(=N)N=C(N)N)c1ccccc1	-1
O=S(=O)(Nc1ccccn1)c1cccc(S(=O)(=O)c2ccc(Cl)cc2)c1	3
N#C/C(=C(/O)CSc1ncn[nH]1)c1nc2ccccc2[nH]1	19
COc1ccc(/C=C(\NC(=O)c2cccs2)C(=O)NCc2ccco2)cc1OC	24
COc1ccccc1/C=N/NC(=O)c1ccc(CN2C(=O)c3cccc4cccc2c34)cc1	7
CC1=N/C(=C/c2ccco2)C(=O)O1	1
C=CCN1C(=O)/C(=C2/Sc3ccc(OC)cc3N2C)SC1=Nc1ccc(OC)cc1	3
COc1ccc(OC)c2c(C)cc(N3CCN(C(=O)c4ccc(C)cc4)CC3)nc12	10
O=C(O)Cc1ccc(-n2cccc2)cc1	7
COc1ccccc1CNC(=O)c1cccc(NC(=O)c2ccccc2)c1	4
CN1C(=O)S/C(=C\c2ccc(-n3cncn3)cc2)C1=O	12
COc1ccc(O)c(-c2cc(-c3ccccc3[N+](=O)[O-])[nH]n2)c1	20
CC(C)(C)[Si](OCC[C@@H]1C[C@@]1(C)[C@@H](NP(=O)(c1ccccc1)c1ccccc1)c1ccccc1)(c1ccccc1)c1ccccc1	2
COc1ccc(-c2nn(-c3ccccc3)cc2C(=O)N2c3ccc(C)cc3C3CN(C)CCC32)cc1 (stereo unspecified)	16
O=C(c1cc(COc2ccc3ncccc3c2)on1)N1CCC(O)CC1	5
Cn1nc2c3ccccc3n(Cc3ccc(F)cc3)c2nc1=S	19
CCOP(=O)(OCC)c1nc(-c2ccccc2Cl)oc1N1CCOCC1	6
COc1ccc(C(C)=O)cc1CN1C(=O)NC2(CCCCCCC2)C1=O	2
CCc1nnc(NC(=O)CSc2ccc(-c3nc4ccc(C)cc4[nH]3)cn2)s1	12
CCN(C(=O)CN1CCOCC1)C1(C)C(=O)c2ccccc2C1=O	16
O=C(O)c1cccc(S(=O)(=O)NCCC(c2ccccc2)c2ccccc2)c1	12
O=C(C/C=N\O)Nc1ccc(Oc2ccccc2)cc1	12
Cc1ccc(NC(=O)NC(=O)CSc2nnc(-c3ccc(OC(F)F)cc3)n2N)c(C)c1	10
NC(=O)COc1ccc(-c2noc(COc3ccccc3[N+](=O)[O-])n2)cc1	3
Cc1ccc(NC(=O)[C@@H](NC(=O)c2cccc(S(=O)(=O)N3CCOCC3)c2)C(C)C)cc1C	16

Single entries from above.
Value for CSc1nc(C)cc(Oc2ccc(OCC(N)=O)nn2)n1 under Calb biofilm kill: 0
Value for O=C(N/N=C\c1ccc(Br)o1)C1COc2ccccc2O1 (stereo unspecified) under Calb biofilm kill: 21
Value for O=Cc1ccc(Oc2cccc(C(F)(F)F)c2)nc1 under Calb biofilm kill: 14
Value for CCOc1ccccc1NC(=O)C(=O)N/N=C/c1cc(Br)ccc1O under Calb biofilm kill: 5
Value for Cc1cc(C)n(CC(C)NCc2cn[nH]c2-c2cccc3ccccc23)n1 (stereo unspecified) under Calb biofilm kill: 15

New compounds follow:
SMILES	Calb biofilm kill
CSc1c(SCc2ccccc2)cnn(-c2ccccc2)c1=O	4
COC(=O)CC1=NN(c2nc3ccccc3s2)C(=O)/C1=C/N(C)C	9
CN(CC(=O)NCc1ccccc1Cl)CC(=O)Nc1cccc(F)c1	7
Cc1[nH]c2ccccc2c1C(=O)NS(=O)(=O)Nc1ccccc1	2
O=C(COC(=O)C1CCN(S(=O)(=O)c2ccccc2)CC1)NC(=O)c1ccc(OC(F)F)cc1	14
CN(C)/C=C/C(=O)c1ccc(Oc2ncccn2)cc1	10
O=C(Nc1ccc2c(c1)OCO2)N1CCCc2ccccc21	19
Cc1cc(C(=O)Nn2cnc3ccccc3c2=O)ccc1[N+](=O)[O-]	3
O=C(NC1CC1)C1=C[C@H](c2ccc(Br)cc2)C[C@H](OCc2ccc(CO)cc2)O1	15
Brc1cnc2nc[nH]c2c1	26
COc1ccc(CC(=O)N/N=C/C=C/c2cccc([N+](=O)[O-])c2)cc1OC	7
CCc1nnc(NC(=O)CSc2nnc(Cc3cc(=O)[nH]c(=O)[nH]3)n2-c2cccc(OC)c2)s1	-6
CC1(C)CC(=O)C2=C(C1)OC(N)=C(C#N)C2c1cn(-c2ccccc2)nc1-c1ccccc1 (stereo unspecified)	18
Nc1cccc(C2=Nc3cccc4cccc(c34)N2)c1	14
C/C(=N\NC(=O)CCC(=O)Nc1ccc(C)c(C)c1)c1cccs1	24
NC(=O)NC(=O)COC(=O)c1ccc(OC(F)F)cc1	0
COc1ccc(OC)c(/C=N/NC(=O)CCc2n[nH]c(=O)[nH]c2=O)c1	9
O=C(O)COc1ccc(/C=N/NC(=O)c2ccccc2Br)cc1	14
COc1cccc(C(=O)NC(=S)NCc2ccco2)c1	9
O=C(Nc1cccc(NC(=O)c2cccs2)c1)c1ccc([N+](=O)[O-])o1	19
O=C(O)c1cccc(CN2C(=O)SC(Nc3cccc4ccccc34)C2=O)c1 (stereo unspecified)	7
O=C(Cc1ccc(Br)cc1)Nc1ccc(S(=O)(=O)NCC2CCCO2)cc1 (stereo unspecified)	5
O=C(NNC(=S)Nc1ccc(Br)cc1Cl)c1ccco1	10
CCN(CC)c1ccc(S(=O)(=O)N2CCOCC2)cc1NS(C)(=O)=O	1

Already shown: 5 of the compounds above.
SMILES	Calb biofilm kill
CC1(C)CC(=O)C2=C(C1)OC(N)=C(C#N)C2c1cn(-c2ccccc2)nc1-c1ccccc1 (stereo unspecified)	18
Nc1cccc(C2=Nc3cccc4cccc(c34)N2)c1	14
C/C(=N\NC(=O)CCC(=O)Nc1ccc(C)c(C)c1)c1cccs1	24
NC(=O)NC(=O)COC(=O)c1ccc(OC(F)F)cc1	0
COc1ccc(OC)c(/C=N/NC(=O)CCc2n[nH]c(=O)[nH]c2=O)c1	9

Next part
SMILES	Calb biofilm kill
CCC(Oc1ccc2c(=O)c(-c3ccccc3OC)coc2c1)C(=O)OCc1ccccc1 (stereo unspecified)	15
Cc1cccc(NC(=O)CSc2nnc(-c3ccco3)n2CC2CCCO2)n1 (stereo unspecified)	9
Cc1ccccc1C(=O)NC(=S)NCCN1CCOCC1	15
Cn1c(SCC(=O)c2ccccc2)nnc1-c1ccco1	6
Cc1cc(C)n(C(=O)c2c([N+](=O)[O-])c(C)nn2C)n1	9
Fc1cc(NCc2ccccc2)nc(NCc2ccccc2)n1	4
CC(C)CN(C)C(=O)CCc1nnc(Cc2cccc(C(F)(F)F)c2)o1	6
Cc1cc(O)c(Oc2cc(C)cc(O)c2O)c(O)c1	20
COCCCNC(=S)NCCNc1nc2c(C)c(C)ccc2cc1C#N	10
O=C1c2cccc([N+](=O)[O-])c2C(=O)N1c1c[nH]c(=O)[nH]c1=O	15
COCCCNc1nc(N)c([N+](=O)[O-])c(Nc2cc(OC)ccc2OC)n1	11
